Source: PubChem (Broad Institute)
ID4 binder: binders of human ID4 protein | P47928 | small molecule microarray, Flag-ID4 binding, fluorescence F/B | calls only | 31,000 tested, 1.2% active | AID 624137;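 active means spot signal over background at p below 0.07 in all four prints; compounds were printed on slides so no solution concentration is given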;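 further: a binder raises fluorescence above local background on the spot; about 2 pmol printed per array spot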
Target sequence (P47928 whole entry, looked up): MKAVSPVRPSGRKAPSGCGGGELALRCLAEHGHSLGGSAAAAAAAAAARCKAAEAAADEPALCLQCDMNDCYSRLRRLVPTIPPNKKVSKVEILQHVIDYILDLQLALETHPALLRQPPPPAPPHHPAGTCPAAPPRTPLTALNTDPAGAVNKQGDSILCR
STAT3 SMM: STAT3 (human) binding. calls only. 17,000 tested, 0.2% active. Small molecule microarray, His-STAT3 binding, anti-His fluorescence. AID 624138;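 active means compounds whose four printed spots each show fluorescence over background unusually high for their array block, chance value under 7%; compounds were printed on slides so no solution concentration is given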;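 further: about 2 pmol printed per array spot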
p53 mut binder: binders of human mutant p53 | small molecule microarray binding, anti-GST fluorescence | calls only | 17,000 tested, 0.4% active | AID 624136;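 active means compounds whose four printed spots each glow above background more than chance allows, each with a p-value under 7%; compounds were printed on slides so no solution concentration is given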;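 further: about 2 pmol printed per array spot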
c-Myc SMM: binders of human c-Myc; P01106; small molecule microarray, His-c-Myc binding, anti-His fluorescence; calls only; 17,000 tested, 1.5% active;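 active means spot fluorescence over background with P-value below 7% in all four replicate spots, showing protein binding; compounds were printed on slides so no solution concentration is given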;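 further: score is binary with 100 for all four spots passing and 0 otherwise; about 2 pmol printed per array spot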
Target sequence (P01106 whole entry, looked up): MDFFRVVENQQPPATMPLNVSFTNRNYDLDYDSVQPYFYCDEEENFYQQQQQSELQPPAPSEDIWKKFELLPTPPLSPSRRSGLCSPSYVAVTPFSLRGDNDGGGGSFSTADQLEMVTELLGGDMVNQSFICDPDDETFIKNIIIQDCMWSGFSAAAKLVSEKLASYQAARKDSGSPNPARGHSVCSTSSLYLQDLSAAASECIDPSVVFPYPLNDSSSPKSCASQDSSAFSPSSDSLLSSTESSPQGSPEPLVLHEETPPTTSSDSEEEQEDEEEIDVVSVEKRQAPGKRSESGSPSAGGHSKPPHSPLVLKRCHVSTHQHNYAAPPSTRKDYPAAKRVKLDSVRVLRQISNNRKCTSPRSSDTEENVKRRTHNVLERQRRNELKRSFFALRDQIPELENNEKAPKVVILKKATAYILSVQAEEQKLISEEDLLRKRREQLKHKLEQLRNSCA
Calls only; i = inactive; nt = no result given; + = active, no number.

structure | ID4 binder | p53 mut binder | STAT3 SMM | c-Myc SMM
C[C@H]1CN([C@@H](C)CO)C(=O)c2cc(NC(=O)Nc3ccccc3)ccc2O[C@H]1CN(C)Cc1ccncc1 | i | i | i | i
COc1ccccc1NC(=O)N(C)C[C@@H]1OCc2cnnn2CCCC(=O)N([C@H](C)CO)C[C@H]1C | i | i | i | i
COc1ccc2c3c([nH]c2c1)[C@H]1C[C@H]2[C@H](C[C@@H](O)[C@H](OC)[C@H]2C(=O)O)CN1CC3 | i | i | i | i
CNC[C@H]1OCCCC[C@@H](C)Oc2ccc(NC(=O)Nc3cccc4ccccc34)cc2C(=O)N([C@H](C)CO)C[C@H]1C | i | i | i | i
Cc1ccccc1OCC(=O)Nc1cc2nn(-c3ccccc3)nc2cc1Cl | i | i | i | i
C[C@@H]1CN([C@H](C)CO)C(=O)Cc2cc(NS(=O)(=O)c3cccs3)ccc2O[C@@H]1CN(C)CC1CC1 | i | i | i | i
OCCN1CCN(CC(O)COc2ccc(Cl)cc2)CC1 (configuration not stated) | i | i | i | i
C[C@H](CO)N1C[C@H](C)[C@@H](CN(C)CC2CC2)Oc2c(NC(=O)c3ccncc3)cccc2C1=O | i | i | i | i
O=C1N(CCS(=O)(=O)c2ccccc2)Cc2ccccc2C[C@]12N=C(c1ccc(OCCCO)cc1)O[C@@H]2c1ccccc1 | i | i | i | i
Cc1cc(=O)[nH]c(SCC(=O)Nc2ccnc3ccccc23)n1 | i | i | i | i
C[C@H](CO)N1C[C@H](C)[C@H](CN(C)C)Oc2ccc(N(C)C)cc2CC1=O | i | i | i | i
COc1ccc(CN(C)C[C@@H]2Oc3ccc(NC(=O)Cc4cn(C)c5ccccc45)cc3C(=O)N([C@H](C)CO)C[C@@H]2C)cc1 | i | i | i | i
CCn1cc(C(=O)OCc2ccc3nonc3c2)c(=O)c2ccc(C)nc21 | i | i | i | i
C[C@H]1CN([C@@H](C)CO)C(=O)c2cccc(NC(=O)c3ccncc3)c2O[C@@H]1CN(C)C(=O)Nc1ccc(C(F)(F)F)cc1 | i | i | i | i
COc1ccccc1CCNC(=O)c1ccoc1C | i | i | i | i
C[C@@H]1CN([C@H](C)CO)C(=O)CCCn2nncc2CO[C@H]1CN(C)C(=O)Nc1ccc(N2CCN(C)CC2)cc1 | i | i | i | i
NC(=O)NCC#Cc1ccc2c(c1)[C@]1(C(=O)N2)[C@H](C(=O)O)[C@H]2C(=O)O[C@H](c3ccccc3)[C@H](c3ccccc3)N2[C@@H]1c1ccc(OCCO)cc1 | i | i | i | i
C[C@H](CO)N1C[C@H](C)[C@H](CN(C)C(=O)Nc2ccccc2)Oc2ncc(C#Cc3ccc(C(F)(F)F)cc3)cc2C1=O | i | i | i | i
CCOc1ccccc1CNCc1ccccn1 | i | i | i | i
C[C@@H]1CCCCO[C@@H](CN(C)C(=O)Nc2cccc3ccccc23)[C@@H](C)CN([C@H](C)CO)C(=O)c2cc(NC(=O)c3ccncc3)ccc2O1 | i | i | i | i
C[C@H](CO)N1C[C@H](C)[C@@H](CN(C)Cc2ccc3c(c2)OCO3)Oc2ccc(NC(=O)NC3CCCCC3)cc2C1=O | i | i | i | i
C[C@H]1CN([C@@H](C)CO)C(=O)c2cccc(NC(=O)NC3CCCCC3)c2O[C@H]1CN(C)S(=O)(=O)c1cccs1 | i | i | i | i
C[C@@H]1CN([C@H](C)CO)C(=O)CCCn2cc(nn2)CO[C@@H]1CN(C)Cc1ccccc1 | i | i | i | i
Cc1noc(C)c1NC(=O)Nc1cccc2c1O[C@H](CN(C)S(=O)(=O)c1ccc(Cl)cc1)[C@H](C)CN([C@H](C)CO)C2=O | i | i | i | i
C[C@@H]1CN([C@@H](C)CO)C(=O)c2cccc(NS(=O)(=O)c3cn(C)cn3)c2O[C@H]1CN(C)Cc1ccc(C(F)(F)F)cc1 | i | i | i | i
C[C@@H]1CN([C@H](C)CO)C(=O)c2cc(NS(=O)(=O)c3cn(C)cn3)ccc2O[C@H]1CN(C)C(=O)Nc1ccc2c(c1)OCO2 | i | i | i | i
C[C@@H]1CC[C@]2(C)[C@H](CC[C@@H](O)[C@]2(C)O)[C@@]1(C)CC(=O)c1ccoc1 | i | i | i | i
CNC[C@@H]1Oc2ccc(NC(=O)Cc3ccccc3)cc2C(=O)N([C@H](C)CO)C[C@H]1C | i | i | i | i
CC(C)=CCC/C(C)=C/CC(O)/C(C)=C/Cc1cc(C(=O)O)ccc1O (configuration not stated) | i | i | i | i
C[C@H]1CN([C@@H](C)CO)C(=O)Cc2cc(NC(=O)Nc3cccc4ccccc34)ccc2O[C@@H]1CN(C)CC1CC1 | i | i | i | i
C[C@H]1CN([C@@H](C)CO)C(=O)Cc2cc(NC(=O)NC3CCCCC3)ccc2O[C@@H]1CN(C)C(=O)Nc1ccc(F)cc1 | i | i | i | i
CCCc1c(C(=O)O)cc2c(c1O)C(=O)c1c(O)cccc1C2=O | i | i | i | i
COc1ccc(NC(=S)NCc2cc(C)n(C)n2)cc1OC | i | i | i | i
C[C@@H]1CN([C@H](C)CO)C(=O)c2cccc(NS(=O)(=O)c3cn(C)cn3)c2O[C@H]1CN(C)C(=O)Nc1ccc(C(F)(F)F)cc1 | i | i | i | i
CNC[C@H]1Oc2ccc(NC(=O)Cc3ccccc3)cc2CC(=O)N([C@@H](C)CO)C[C@@H]1C | i | i | i | i
CNC[C@H]1Oc2ccc(NC(=O)Cn3cnnn3)cc2CC(=O)N([C@@H](C)CO)C[C@H]1C | i | i | i | i
CCn1c(NCc2ccccc2O)nc2ccccc21 | i | i | i | i
C[C@H](CO)N1C[C@H](C)[C@H](CN(C)CC2CC2)Oc2ccc(NC(=O)Cc3ccccc3)cc2C1=O | i | i | i | i
COc1ccc(-c2noc(CSc3nnc(-c4ccccc4)n3C)n2)cc1 | i | i | i | i
C[C@H](CO)N1C[C@H](C)[C@@H](CN(C)C(=O)CCCN(C)C)OCCCC[C@H](C)Oc2ccc(NS(=O)(=O)c3cccs3)cc2C1=O | i | i | i | i
COc1ccc(S(=O)(=O)Nc2cccc3c2O[C@H](CN(C)C(=O)NC2CCCCC2)[C@@H](C)CN([C@H](C)CO)C3=O)cc1 | nt | i | i | i
C[C@@H]1CN([C@H](C)CO)C(=O)Cc2cc(NC(=O)c3ccncc3)ccc2O[C@H]1CN(C)C(=O)Nc1ccc(F)cc1 | i | i | i | i
C[C@@H]1CN([C@@H](C)CO)C(=O)c2cccc(NS(=O)(=O)c3ccc(F)cc3)c2O[C@@H]1CN(C)C(=O)Nc1ccc2c(c1)OCO2 | nt | i | i | i
CC1(C)Cc2nc3nc(SCC(=O)Nc4ccccc4)nc(N)c3cc2CO1 | i | i | i | i
C[C@H](CO)N1C[C@H](C)[C@@H](CN(C)C(=O)Nc2ccc3c(c2)OCO3)Oc2ccc(NS(C)(=O)=O)cc2C1=O | i | i | i | i
C[C@H](CO)N1C[C@H](C)[C@H](CN(C)C(=O)Nc2ccc(F)cc2)Oc2ccc(NC(=O)Nc3ccccc3)cc2CC1=O | i | i | i | i
C[C@@H]1CN([C@H](C)CO)C(=O)Cc2cc(NS(=O)(=O)c3ccc(Cl)cc3)ccc2O[C@@H]1CN(C)S(=O)(=O)c1ccc(Cl)cc1 | nt | i | i | i
C[C@H](CO)N1C[C@H](C)[C@H](CN(C)C(=O)Nc2ccccc2C(F)(F)F)OCc2cn(nn2)CCCC1=O | i | i | i | i
COc1ccc(NC(=O)Cc2nc(-c3ccc(OC)cc3)cs2)cc1 | i | i | i | i
CCOc1ccc(NC(=O)C2CC(=O)n3cnnc3N2)cc1 (configuration not stated) | i | i | i | i
Cc1noc(C)c1S(=O)(=O)N(C)C[C@@H]1Oc2ccc(NS(=O)(=O)c3cccs3)cc2CC(=O)N([C@H](C)CO)C[C@H]1C | i | i | i | i
C[C@H]1CN([C@@H](C)CO)C(=O)Cc2cc(NC(=O)NC3CCCCC3)ccc2O[C@@H]1CN(C)C(=O)Nc1ccccc1 | i | i | i | i
Cc1noc(C)c1S(=O)(=O)N(C)C[C@H]1Oc2c(NC(=O)C3CCOCC3)cccc2C(=O)N([C@@H](C)CO)C[C@H]1C | i | i | i | i
Cc1noc(C)c1NC(=O)Nc1cccc2c1O[C@@H](CN(C)Cc1ccc(C(F)(F)F)cc1)[C@@H](C)CN([C@@H](C)CO)C2=O | i | i | i | i
C[C@H](CO)N1C[C@H](C)[C@@H](CN(C)C(=O)NC2CCCCC2)Oc2c(NS(C)(=O)=O)cccc2C1=O | i | i | i | i
CC(=O)c1ccc(NC(=O)c2ccc(CSc3ccccn3)cc2)cc1 | i | i | i | i
CCOC(=O)C1=CC[C@@H](c2ccccc2)[C@@]12CC/C(=C\c1ccccc1)C2=O | i | i | i | i
OCc1cc2c(cn1)[nH]c1ccccc12 | i | i | i | i
C[C@@H]1CN([C@H](C)CO)C(=O)c2cccc(NC(=O)NC3CCCCC3)c2O[C@H]1CN(C)C(=O)Nc1ccc(C(F)(F)F)cc1 | i | i | i | +
C[C@H](CO)N1C[C@H](C)[C@@H](CN(C)C(=O)NC2CCCCC2)Oc2ccc(NS(=O)(=O)c3ccc(Cl)cc3)cc2C1=O | i | i | i | i

New compounds follow:
structure | ID4 binder | p53 mut binder | STAT3 SMM | c-Myc SMM
COC(=O)C(CC#Cc1ccc2c(c1)[C@]1(C(=O)N2)[C@H](C(=O)N2CCc3cc(OC)c(OC)cc3C2)[C@H]2C(=O)O[C@H](c3ccccc3)[C@H](c3ccccc3)N2[C@@H]1c1ccc(O)cc1)C(=O)OC | i | i | i | i
CN1CCN(C(=O)C2=C[C@@H](c3ccc(Br)cc3)C[C@@H](OCCCCO)O2)CC1 | i | i | i | i
COC(=O)c1c(CC[C@@H](CO)NC(=O)N[C@H](Cc2ccccc2)Cn2cc(-c3ccccn3)nn2)oc(C(C)=O)c1C(=O)OC | nt | i | i | i
COc1ccc(NC(=O)Nc2cccc3c2O[C@H](CN(C)C(=O)Nc2ccccc2)[C@H](C)CN([C@H](C)CO)C3=O)cc1 | i | i | i | i
Cc1cc(N(CC(=O)NC2CC2)S(C)(=O)=O)ccc1Br | i | i | i | i
C[C@@H]1CCCCO[C@H](CN(C)C(=O)Nc2ccccc2)[C@H](C)CN([C@H](C)CO)C(=O)c2cc(NS(C)(=O)=O)ccc2O1 | i | i | i | i
C[C@@H]1CCCCO[C@H](CN(C)C(=O)Cc2ccccc2)[C@H](C)CN([C@@H](C)CO)C(=O)c2cc(NC(=O)Nc3ccccc3)ccc2O1 | i | i | i | i
C/C=C/c1ccc(OCCCN2C(=O)NC(C)(C)C2=O)c(OC)c1 | i | i | i | i
C[C@@H]1CCCCO[C@H](CN(C)C)[C@H](C)CN([C@@H](C)CO)C(=O)c2cc(NC(=O)CCCN(C)C)ccc2O1 | i | i | i | i
C[C@H]1CN([C@@H](C)CO)C(=O)Cc2cc(NS(=O)(=O)c3cn(C)cn3)ccc2O[C@@H]1CN(C)S(=O)(=O)c1ccc(Cl)cc1 | i | i | i | i
C[C@H](CO)N1C[C@H](C)[C@@H](CN(C)C(=O)Nc2ccc3c(c2)OCO3)Oc2ccc(NC(=O)CCCN(C)C)cc2C1=O | i | i | i | i
C[C@@H]1CN([C@@H](C)CO)C(=O)c2cc(NC(=O)Nc3cccc4ccccc34)ccc2O[C@@H]1CN(C)C(=O)NC1CCCCC1 | i | i | i | i
Cc1ccc(S(=O)(=O)Nc2nc(C)c(NC(=O)Nc3ccc(Cl)cc3Cl)s2)cc1 | i | i | i | i
COc1ccc(C2OCC3C(c4cc(OC)c5c(c4)OCO5)OCC23)cc1OC (configuration not stated) | i | i | i | i
C[C@H]1CN([C@@H](C)CO)C(=O)c2cccc(N(C)C)c2O[C@@H]1CN(C)Cc1ccc(Cl)c(Cl)c1 | i | i | i | i
C[C@H](CO)N1C[C@H](C)[C@@H](CN(C)Cc2ccc(-c3ccccc3)cc2)OCc2cn(nn2)CCCC1=O | nt | i | i | i
C[C@@H]1CN([C@H](C)CO)C(=O)Cc2cc(NC(=O)Nc3cccc4ccccc34)ccc2O[C@@H]1CN(C)CC1CC1 | i | i | i | i
C[C@H]1CN([C@@H](C)CO)C(=O)Cc2cc(NC(=O)C3CC3)ccc2O[C@@H]1CN(C)Cc1ccncc1 | i | i | i | i
C[C@H]1CN([C@@H](C)CO)C(=O)c2cc(NC(=O)CCN3CCOCC3)ccc2O[C@@H]1CN(C)C | i | i | i | i

5 entries out of the list, sorted by heavy-atom count, low to high:
structure | ID4 binder | p53 mut binder | STAT3 SMM | c-Myc SMM
Cc1cc(N(CC(=O)NC2CC2)S(C)(=O)=O)ccc1Br | i | i | i | i
CCCc1c(C(=O)O)cc2c(c1O)C(=O)c1c(O)cccc1C2=O | i | i | i | i
CNC[C@@H]1Oc2ccc(NC(=O)Cc3ccccc3)cc2C(=O)N([C@H](C)CO)C[C@H]1C | i | i | i | i
Cc1noc(C)c1S(=O)(=O)N(C)C[C@@H]1Oc2ccc(NS(=O)(=O)c3cccs3)cc2CC(=O)N([C@H](C)CO)C[C@H]1C | i | i | i | i
C[C@@H]1CN([C@@H](C)CO)C(=O)c2cc(NC(=O)Nc3cccc4ccccc34)ccc2O[C@@H]1CN(C)C(=O)NC1CCCCC1 | i | i | i | i

The list is partial; the hit share may differ from the screen's.
